MbtI inh – MbtI salicylate synthase inhibitors, primary screen, biochemical, fluorescence intensity. purified MbtI enzyme, fluorescence intensity read-out. inhibition, %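 (about 17 µg/mL by stock and volumes)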. AID 493033, 2011. hit rate 0.89% among 100,000;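 active means above 50% in both replicates, above 80% if mildly self-fluorescent; inactive means the rest, strongly fluorescent compounds included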;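 further: 0% = mean of negative and 100% = mean of positive controls; one replicate is shown; some compounds called inactive have numbers as strong as hits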
Target sequence (P9WFX0 whole entry, looked up): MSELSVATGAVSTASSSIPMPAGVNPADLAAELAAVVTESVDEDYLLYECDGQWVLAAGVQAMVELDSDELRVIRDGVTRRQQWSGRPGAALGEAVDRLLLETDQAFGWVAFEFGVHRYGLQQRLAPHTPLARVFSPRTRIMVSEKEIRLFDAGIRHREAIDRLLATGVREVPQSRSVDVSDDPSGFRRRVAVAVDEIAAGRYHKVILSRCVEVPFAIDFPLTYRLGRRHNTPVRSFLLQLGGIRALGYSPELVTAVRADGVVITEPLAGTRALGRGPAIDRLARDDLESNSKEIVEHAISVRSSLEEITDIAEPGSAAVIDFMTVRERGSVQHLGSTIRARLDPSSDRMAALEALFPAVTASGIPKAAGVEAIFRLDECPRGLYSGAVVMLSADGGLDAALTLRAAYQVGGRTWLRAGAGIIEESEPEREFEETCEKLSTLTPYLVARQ
PV pol inh – poliovirus RdRp elongation inhibitors, primary screen, biochemical, fluorescence polarization, total intensity. hit rate 0.66% among 150,000. % elongation, % (compound at 16.7 µg/mL). AID 588519, 2011. Genome polyprotein (Poliovirus type 1 (strain Mahoney)), P03300. poliovirus polymerase elongation; active compounds read low; in the data active means % elongation below about 90%; further: some results filed as inactive read as strong as hits
Mtb MenB inh – M. tuberculosis MenB inhibitors, primary screen, biochemical, absorbance | 1,4-dihydroxy-2-naphthoyl-CoA synthase (Mycobacterium tuberculosis (strain ATCC 25618 / … | MenB enzyme assay, absorbance read-out; some hits fall short of the stated cut | inhibition, %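 (about 12 µg/mL by stock and volumes)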 | hit rate 0.43% among 100,000;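 active means mean of two replicates above 30%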;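 further: 0% = no compound and 100% = wells with inactive enzyme; the first replicate is given; strong numbers were not always called active; inactives centre near -10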
Target sequence (P9WNP5 whole entry, looked up): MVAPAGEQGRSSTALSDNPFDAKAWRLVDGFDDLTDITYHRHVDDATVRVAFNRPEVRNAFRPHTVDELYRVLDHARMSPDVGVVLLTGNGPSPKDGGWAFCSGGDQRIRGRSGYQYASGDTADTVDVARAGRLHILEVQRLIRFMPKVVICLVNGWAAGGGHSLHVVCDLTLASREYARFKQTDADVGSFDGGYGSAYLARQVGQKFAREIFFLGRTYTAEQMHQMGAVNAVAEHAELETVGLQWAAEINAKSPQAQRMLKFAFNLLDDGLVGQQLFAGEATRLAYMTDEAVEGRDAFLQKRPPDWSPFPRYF
PV pol inh intensity – also measured in PV pol inh; calls as there; % elongation; measured here: total intensity read-out; formula for this scale not given here;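 total fluorescence in place of polarization; lower means less elongation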
Starred values were filed as active, the others as inactive; . = no result given.

SMILES	MbtI inh	PV pol inh	PV pol inh intensity	Mtb MenB inh
CC(=O)N1CCCc2ccc(NC(=O)Oc3ccccc3)cc21	2.0	103.0	107.0	-18.4
CCC(c1nc2ccccc2n1C)C(O)c1ccccc1 (configuration not stated)	.	101.0	102.0	-18.5
CN(C1CCCCC1)S(=O)(=O)c1ccc(-c2ccc(=O)[nH]n2)o1	-14.9	100.0	106.0	3.3
O=C(Nc1ccccc1)C(F)C(F)(F)F (configuration not stated)	-7.9	103.0	105.0	-26.9
Cc1ccc2oc(=O)c3cc(C(=O)NC(C)C)sc3c2c1	7.8	101.0	98.0	-13.1
Cc1ccc(NC(=O)CCc2nnc3ccc(N4CCC5(CC4)OCCO5)nn23)cc1	0.9	104.0	104.0	-23.7
Fc1ccc(-c2nn(-c3ccccc3)cc2C=NCc2ccccc2)cc1	-7.0	102.0	95.0	-16.0
Cc1ccc(N2C(=O)Nc3ccccc3C2(O)C(=O)N2CC(C)CC(C)C2)cc1C (configuration not stated)	1.4	101.0	96.0	2.6
CC(C)(C)OC(=O)N1CCC(C(=O)Nc2nnc(-c3ccc(Cl)cc3)o2)CC1	-61.7	108.0	111.0	-14.0
Cc1ccc(-n2c(C)cc(C(=O)CN3CC(C)OC(C)C3)c2C)cc1 (configuration not stated)	15.8	.	.	0.1
CCCSc1nnc2n(-c3cc(C)cc(C)c3)c(=O)c3ccccc3n12	23.3	.	.	-6.3
O=C(NCC1CCCO1)C1CC(=O)N(c2ccccc2)C1 (configuration not stated)	2.0	102.0	100.0	16.6
CC1(C)CC2=NN(c3ccccc3)P(=S)(NCc3ccco3)C2=C(N2CCCCC2)C1 (configuration not stated)	25.9	104.0	110.0	-24.9
CCn1c(=O)cc(SCC(=O)NC2CCCC2)c2ccccc21	9.1	104.0	105.0	-11.2
CCOc1ncccc1C(=O)OCC(=O)c1ccccc1	-15.1	102.0	108.0	-17.5
Nc1nnc(-c2ccc(Cn3c(-c4cncs4)nc4ccccc43)cc2)s1	.	63.0*	75.0*	-22.4
CCN1CCN(C(=O)N2c3ccccc3Sc3ccccc32)CC1	-6.0	101.0	100.0	-17.6
COc1ccc(CC(=O)Nc2ccc(-n3cnnn3)cc2)cc1OC	11.2	104.0	94.0	7.8
O=S(=O)(c1ccc(S(=O)(=O)N2CCCC2c2ccc3c(c2)OCCCO3)cc1)N1CCCC1 (configuration not stated)	0.2	104.0	106.0	9.3
CCc1ccc(CNC(=O)c2cc3c(C)nc4ccccc4c3o2)cc1	39.6	102.0	106.0	-21.5
CC12CCC(=O)N1C(C(=O)OCC(=O)N1CCN(S(=O)(=O)c3ccc4ccccc4c3)CC1)CS2 (configuration not stated)	7.4	105.0	112.0	-2.9
Cc1ccc2nc(=O)c(NNc3ccccc3)cnc2c1	-11.9	101.0	100.0	-182.3
O=c1c2c3c(sc2ncn1-c1ccccc1)CCCC3	-1.9	104.0	107.0	5.7
CN(c1ccccc1)S(=O)(=O)c1cccc(C(=O)NC2CCCC2)c1	-6.7	101.0	101.0	.
CC(=O)Oc1cccc(/C=c2/sc3nc4ccccc4n3c2=O)c1	28.8	99.0	102.0	0.7

One compound at a time, from the list above. Order of screens: MbtI inh | PV pol inh | PV pol inh intensity | Mtb MenB inh
Record of CC1(C)CC2=NN(c3ccccc3)P(=S)(NCc3ccco3)C2=C(N2CCCCC2)C1 (configuration not stated) = 25.9 | 104.0 | 110.0 | -24.9
Record of CCC(c1nc2ccccc2n1C)C(O)c1ccccc1 (configuration not stated) = . | 101.0 | 102.0 | -18.5
Record of CN(C1CCCCC1)S(=O)(=O)c1ccc(-c2ccc(=O)[nH]n2)o1 = -14.9 | 100.0 | 106.0 | 3.3
Record of CC12CCC(=O)N1C(C(=O)OCC(=O)N1CCN(S(=O)(=O)c3ccc4ccccc4c3)CC1)CS2 (configuration not stated) = 7.4 | 105.0 | 112.0 | -2.9
Record of COc1ccc(CC(=O)Nc2ccc(-n3cnnn3)cc2)cc1OC = 11.2 | 104.0 | 94.0 | 7.8

The list goes on:
SMILES	MbtI inh	PV pol inh	PV pol inh intensity	Mtb MenB inh
CCOC(=O)c1cccc(-n2sc(=O)n(C3Cc4ccccc4C3)c2=O)c1	44.7	99.0	98.0	7.2
Cc1cc(C(=O)OCCCc2nc(-c3ccccc3)no2)c2ccccc2n1	18.0	109.0	111.0	-8.4
CCOC(=O)c1c(C)oc2c1c1c(c3ccccc32)OCN(CCC(=O)O)C1	29.5	101.0	104.0	-25.5
CN(CC(=O)Nc1ccccc1Cl)C(=O)c1cc(=O)[nH]c2ccccc12	24.9	.	.	-32.7
CC(CNS(=O)(=O)c1ccc(-n2cccn2)cc1)c1ccccc1 (configuration not stated)	-1.2	101.0	103.0	-21.6
COC(=O)C1CCN(Cc2csc(-c3ccccc3OC)n2)CC1	9.2	111.0	109.0	-26.1
COc1ccccc1NC(=O)c1ccc2c(c1)C(=O)N(Cc1ccncc1)C2=O	-24.4	102.0	102.0	0.1
CCS(=O)(=O)c1ccc(OC)c(NC(=O)c2cc3ccccc3o2)c1	86.2	100.0	103.0	6.3
CCC(C)C(=O)Nc1cccc(C(F)(F)F)c1 (configuration not stated)	.	102.0	96.0	8.3
COc1ccccc1C(=O)N(C)S(=O)(=O)c1ccc(C)cc1	-2.5	104.0	104.0	-0.5
OC(CNCc1ccc(F)cc1)c1ccccc1 (configuration not stated)	-13.6	102.0	104.0	-4.5
Cn1ccc(=O)[nH]c1=O	7.3	103.0	110.0	-13.3
CCN1C(=O)N/C(=C/c2cn(CC(=O)Nc3ccc(F)cc3)c3ccccc23)C1=O	-1.8	100.0	100.0	-26.6
CCOc1ccccc1Nc1nc2ccccc2s1	-2.6	102.0	97.0	.
S=C(NCCc1ccccc1)NN1CCOCC1	-10.1	99.0	101.0	11.1
Cc1noc(C)c1C(=O)N1CCN(C(=O)c2ccco2)CC1	-0.8	99.0	97.0	6.0
CCOC(=O)C1=C(C)NNC(=Nc2cccc(C)c2C)S1	85.9*	80.0*	77.0*	-20.8
O=C(NC(=O)c1ccccc1Cl)NC1CC1	-6.6	104.0	107.0	0.2
O=C(NCCc1ccccc1)c1cc(=O)[nH]c2ccccc12	23.1	103.0	101.0	6.7
Cc1ccc(/C=N/NC(=O)C2CC23CCC3)cc1 (configuration not stated)	20.4	100.0	102.0	-39.8
CC1(C)COCN1C(=O)c1cc2c(=O)n3ccccc3nc2s1	102.1	100.0	101.0	-17.5
CC1CCCC(C)N1NC(=O)c1ccc(Cl)c(S(N)(=O)=O)c1 (configuration not stated)	-14.2	101.0	102.0	2.4
O=C(O)CCC(=O)Nc1ccc(Oc2ccc(Cl)cc2)cc1	.	110.0	113.0	-17.8
CC(C)(C)OC(=O)Nc1cccc(C(=O)OCCCn2c(=O)[nH]c3ccccc32)c1	10.6	103.0	111.0	-13.4
O/N=C/c1nc2ccccc2[nH]1	.	103.0	102.0	-12.8

Five of the compounds above, with two lines to a compound.
Order of values – MbtI inh	PV pol inh	PV pol inh intensity	Mtb MenB inh
Cn1ccc(=O)[nH]c1=O
→ 7.3	103.0	110.0	-13.3
CCN1C(=O)N/C(=C/c2cn(CC(=O)Nc3ccc(F)cc3)c3ccccc23)C1=O
→ -1.8	100.0	100.0	-26.6
CCOc1ccccc1Nc1nc2ccccc2s1
→ -2.6	102.0	97.0	.
S=C(NCCc1ccccc1)NN1CCOCC1
→ -10.1	99.0	101.0	11.1
Cc1noc(C)c1C(=O)N1CCN(C(=O)c2ccco2)CC1
→ -0.8	99.0	97.0	6.0

(more compounds)
SMILES	MbtI inh	PV pol inh	PV pol inh intensity	Mtb MenB inh
CCOC(=O)c1ccccc1NC(=O)Cc1ccc(OC)c(S(=O)(=O)N2CCOCC2)c1	7.8	97.0	96.0	-26.0
CCOC(=O)Nc1ccc2c(COC(=O)C3COc4ccccc4O3)cc(=O)oc2c1 (configuration not stated)	103.2	104.0	99.0	-27.4
Cc1cc(N2CCOCC2)nc(-c2ccccc2O)n1	8.5	100.0	102.0	-49.3
C=CCn1cc(C)c(=O)n(CC=C)c1=O	-3.7	102.0	104.0	-25.5
O=C(O)c1ccccc1NCCC1=CCCCC1	112.2	101.0	107.0	4.1
N#CC1=C(N)N(c2ncn[nH]2)C2=C(C(=O)CCC2)C1c1ccc(Br)cc1 (configuration not stated)	-0.9	100.0	100.0	-15.4
CCCn1c(CCC(=O)Nc2ccc(C)cc2)nc2cccnc21	11.1	97.0	114.0	-19.8
O=C(Cn1cnc2c(nnn2Cc2ccc(Cl)cc2)c1=O)N1CCc2ccccc21	8.2	100.0	100.0	8.3
CCC1=NN2C(=N)/C(=C/c3cn(CCOc4cccc(OC)c4)c4ccccc34)C(=O)N=C2S1	-2.8	100.0	106.0	-2.7
CCc1nn2cc(-c3ccc(Cl)cc3)nc2s1	.	110.0	111.0	-1.6
O=C1C=CC(=O)C(CCC2=CC(=O)C=CC2=O)=C1	98.1*	101.0	104.0	14.2
C=CCN1C(=O)CC(C(=O)OCC)=C1C	.	105.0	104.0	3.6
COc1cccc(CNC(=O)CCCN2C(=O)CSc3ncccc32)c1	0.9	101.0	104.0	6.6
Cc1ccccc1CN1CC2CC(C1)c1cccc(=O)n1C2 (configuration not stated)	-3.1	100.0	103.0	-9.3
CCCN(CCC)c1ncnc2c1cnn2-c1cccc(C)c1	-0.9	101.0	96.0	-11.3
Cc1cc(C2=Nc3ccccc3SC2)ccc1Cl	-2.6	108.0	113.0	-11.7
O=C(CSc1ccccn1)N/N=C/c1ccccc1	8.6	99.0	103.0	18.3
COc1ccc(-n2ccnc(NCCc3ccccc3)c2=O)cc1	37.6	102.0	104.0	-6.4
CC1(C)Cc2c(sc3c2c(=O)n(Cc2ccccc2)c2nncn32)CO1	.	104.0	105.0	-16.5
O=C1CN2C(=Nc3ccc(Cl)cc3C2c2ccccc2)CN1 (configuration not stated)	15.3	101.0	96.0	-21.7
O=C(Nc1nc2ccccc2s1)C1c2ccccc2Oc2ccccc21	-1.4	104.0	108.0	-27.2
CCc1cc(=O)oc2cc(OCC(=O)c3ccc(F)cc3)ccc12	-7.4	102.0	106.0	.
Cc1cc2c(n1-c1ccc(C(=O)O)cc1)CCCC2	34.8	98.0	105.0	-9.9
CCOC(=O)c1c(CS(=O)(=O)Cc2ccc(Cl)cc2)oc2c(F)c(F)c(F)c(F)c12	-0.3	99.0	97.0	-29.3
Cc1cc(C(=O)Cn2cc(S(=O)(=O)N(C)C)ccc2=O)c(C)n1-c1ccc2c(c1)OCO2	-10.2	107.0	111.0	-25.7

As a short view, part of the list above.
SMILES	MbtI inh	PV pol inh	PV pol inh intensity	Mtb MenB inh
Cc1cc2c(n1-c1ccc(C(=O)O)cc1)CCCC2	34.8	98.0	105.0	-9.9
CCOC(=O)c1c(CS(=O)(=O)Cc2ccc(Cl)cc2)oc2c(F)c(F)c(F)c(F)c12	-0.3	99.0	97.0	-29.3
Cc1cc(C(=O)Cn2cc(S(=O)(=O)N(C)C)ccc2=O)c(C)n1-c1ccc2c(c1)OCO2	-10.2	107.0	111.0	-25.7

(continued)
SMILES	MbtI inh	PV pol inh	PV pol inh intensity	Mtb MenB inh
CN1CCc2nc(NC(=O)CC3Sc4ccccc4NC3=O)sc2C1 (configuration not stated)	-1.9	104.0	108.0	-33.0
CCN1CCCC1CNC(=O)CS(=O)Cc1nc(-c2ccc(OC)c(OC)c2)oc1C (configuration not stated)	119.2	100.0	103.0	10.4
CC(=O)N1CCC2(CC1)OC(=O)C(C)=C2C(=O)N1CCOCC1	-10.7	103.0	103.0	0.2
Cc1ccccc1NC(=O)C(CC(C)C)N1C(=O)c2ccccc2C1=O (configuration not stated)	0.9	101.0	100.0	-14.2
Cc1cc2c(c(=O)n1CCN(C)C)C(c1ccncc1)C(C#N)=C(N)O2 (configuration not stated)	-0.4	102.0	105.0	7.0
CC(=O)Nc1nc2c(C)cccc2s1	0.2	100.0	103.0	7.9
O=S1(=O)CCN2N=C(c3ccccc3)C(c3ccccc3)=NC2=N1	10.4	100.0	104.0	-0.6
S=C(/N=c1/sccn1Cc1ccccc1)NC1CC1	6.7	112.0	112.0	-84.5
CCOc1ccc(NC(=O)C2CC(=O)NC(=Nc3ccccc3)S2)cc1 (configuration not stated)	-4.0	102.0	102.0	-6.0

Ordered by SMILES length (ascending): part of the list above
SMILES	MbtI inh	PV pol inh	PV pol inh intensity	Mtb MenB inh
O=C(O)c1ccccc1NCCC1=CCCCC1	112.2	101.0	107.0	4.1
COC(=O)C1CCN(Cc2csc(-c3ccccc3OC)n2)CC1	9.2	111.0	109.0	-26.1
Cc1ccc(N2C(=O)Nc3ccccc3C2(O)C(=O)N2CC(C)CC(C)C2)cc1C (configuration not stated)	1.4	101.0	96.0	2.6

An unsorted share of the library; any-hit rate near 1.8%.
